# HIV Env fusion: inhibitors of HIV-1 Env-driven cell-cell fusion, primary screen, HeLa-JRFL effector, CEM21 target cells, luciferase | inhibition, % at 12.3 µM | actives 1.1% (n = 360,000) | AID 651610, 2012;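 active means mean replicate inhibition score of at least 50 and every replicate individually at or above 50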;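 further: 0% = plate neutral controls and 100% = maraviroc near 300 nM; one replicate is shown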
# UUG fidelity: modulators of yeast start codon fidelity, primary screen, whole organism, S. cerevisiae, single point, plate reader; activity score, % at 18.7 µM; S. cerevisiae UUG-firefly luciferase reporter, luminescence/redox ratio; actives 0.13% (n = 350,000);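 active means replicate mean at a twofold rise or more, about +100% in these data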;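 further: firefly luciferase made from a UUG start codon reports start codon fidelity; reporter light over untreated wells divided by growth signal over untreated wells; some hits fall short of that in this replicate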
# Rce1 inh: yeast Rce1p protease inhibitors, primary screen, biochemical, fluorescence, cell-free homogeneous | actives 0.27% (n = 290,000) | calls only | yeast membranes, quenched prenylated peptide cleavage fluorescence;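 active means fall in fluorescence gain of 50% or more versus controls, with final raw signal at or below 3038400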;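 further: plate controls were neutral control wells for no effect and wells lacking membranes for full effect; tested at 10 µM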
# Target sequence (Q03530 whole entry, looked up): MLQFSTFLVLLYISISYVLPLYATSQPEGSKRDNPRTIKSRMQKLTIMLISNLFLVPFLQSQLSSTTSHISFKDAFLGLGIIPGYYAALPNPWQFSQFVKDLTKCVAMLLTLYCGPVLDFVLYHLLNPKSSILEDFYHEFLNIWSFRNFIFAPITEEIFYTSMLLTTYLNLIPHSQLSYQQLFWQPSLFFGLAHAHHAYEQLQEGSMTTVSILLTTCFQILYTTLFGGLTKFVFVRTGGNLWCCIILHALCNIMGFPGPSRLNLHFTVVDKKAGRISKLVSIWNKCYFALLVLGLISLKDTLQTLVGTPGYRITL
# PABP polyA inh: PABP poly(A) RNA binding inhibitors, primary screen, biochemical, fluorescence polarization, uHTS; Polyadenylate-binding protein 1 (Homo sapiens), P11940; inhibition, % at 35 µM; actives 1% (n = 290,000); AID 2014, 2009;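 active means 50% or more with normal probe brightness, or confirmed in later tests; about a fifth of its hits are not listed in these tables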;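 further: calls also rest on retests at 20 µM and on dose response follow-up; controls were probe without protein and protein plus probe with vehicle; some compounds called inactive have numbers as strong as hits; many hits fall short of the cut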
# Target sequence (P11940 whole entry, looked up): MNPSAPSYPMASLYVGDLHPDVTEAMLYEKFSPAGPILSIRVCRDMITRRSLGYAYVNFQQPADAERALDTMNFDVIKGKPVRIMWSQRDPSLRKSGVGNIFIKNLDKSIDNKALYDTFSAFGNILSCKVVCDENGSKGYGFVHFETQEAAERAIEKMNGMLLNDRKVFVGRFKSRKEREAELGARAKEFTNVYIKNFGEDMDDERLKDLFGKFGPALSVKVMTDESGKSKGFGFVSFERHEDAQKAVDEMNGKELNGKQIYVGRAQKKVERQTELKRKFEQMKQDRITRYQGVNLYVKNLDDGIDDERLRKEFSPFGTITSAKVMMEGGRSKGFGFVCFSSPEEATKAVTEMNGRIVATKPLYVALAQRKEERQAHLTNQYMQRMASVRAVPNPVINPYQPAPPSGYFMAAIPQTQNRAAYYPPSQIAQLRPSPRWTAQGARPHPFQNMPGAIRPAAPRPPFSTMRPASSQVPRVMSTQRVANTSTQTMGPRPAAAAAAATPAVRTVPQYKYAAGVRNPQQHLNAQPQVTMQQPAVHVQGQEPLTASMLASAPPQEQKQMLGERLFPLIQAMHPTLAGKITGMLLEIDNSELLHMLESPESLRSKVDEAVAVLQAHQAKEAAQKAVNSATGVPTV
# CSC inhib: cancer stem cell viability inhibitors, primary screen, luminescence; actives 1.1% (n = 300,000); inhibition, % at 7.5 µM; cancer stem cell-like cells viability;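 active means mean at 75% or more and at least half the replicates too; tested in HMLE shEcad cells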;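 further: 0% = median of negative and 100% = median of positive control wells; the first replicate is given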
# eIF4H inh: human eIF4H binding inhibitors, primary screen, translation initiation inhibitor project, biochemical, uHTS, fluorescence polarization; eIF4H fluorescence polarization binding assay; inhibition, % at 35 µM; actives 0.94% (n = 290,000); AID 2012, 2009;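 active means 50% or more with normal probe brightness, or confirmed in later tests; about a fifth of its hits are not listed in these tables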;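 further: calls also rest on retests at 20 µM and on dose response follow-up; 0% = protein and probe with vehicle and 100% = probe without protein; strong numbers were not always called active; many hits fall short of the cut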
# MT1-MMP act inh: blockers of MT1-MMP proenzyme processing, primary screen, HT1080 RFP-PRO-GFP cells, GFP/RFP fluorescence. Matrix metalloproteinase-14 (Homo sapiens), P50281. GFP/RFP ratio change, % at 20 µM. actives 0.061% (n = 360,000). GFP/RFP ratio fluorescence, overnight; percent of plate control window, DMSO zero;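 active means GFP/RFP ratio change of at least 30% with cell ATP level not reduced by more than half and red fluorescence within 50% of control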; further: strong numbers were not always called active
#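 Material – HT1080 RFP-PRO-GFP cells · Control set – DMSO wells and RFP-L50D-GFP cells · Incubation – overnight cell settling, then overnight compound exposure, 37 °C, 5% CO2 · Compound dosing – single-point 20 µM compound, 1% DMSO · Read-out – GFP/RFP fluorescence ratio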
# eIF4H inh retest: further read-out of eIF4H inh, marked with its call; inhibition, %; compound at 20 µM; confirmation average;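 mean of two retest wells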
# PABP polyA inh retest: further read-out of PABP polyA inh, marked with its call; inhibition, %; compound at 20 µM; confirmation repeats;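 mean of two retest wells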
# MT1-MMP act inh RFP: also measured in MT1-MMP act inh; calls as there; RFP signal change, %; measured here: RFP expression control read;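 0 = vehicle wells; hits needed this value within 50% of zero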
# Active calls of the source: *; i = inactive; · = no result given. No enrichment for hits. Share with any hit: about 2.9%.
# Sample of the layout:
SMILES,HIV Env fusion,UUG fidelity,Rce1 inh,PABP polyA inh,CSC inhib,eIF4H inh,MT1-MMP act inh,MT1-MMP act inh RFP,others
CCOc1ccc(S(=O)(=O)N(C)CCO)cc1-c1nc2c(C(C)(C)C)nn(C)c2c(=O)[nH]1,·,14.2,·,-7.1,1.8,-5.7,4.7,-4.2,
CCOC(=O)CC(NS(=O)(=O)c1ccc2[nH]c(=O)sc2c1)c1ccc(C)cc1 (stereo not given),16.7,-8.1,i,41.2,-10.8,3.6,0.1,2.8,
CC1(C)NC(=O)N(CCCCOc2ccc3ccccc3c2Cl)C1=O,-25.1,-21.3,i,5.1,28.5,5.2,3.0,-0.7,

# Main list, repeating the preview:
SMILES,HIV Env fusion,UUG fidelity,Rce1 inh,PABP polyA inh,CSC inhib,eIF4H inh,MT1-MMP act inh,MT1-MMP act inh RFP,others
CCOc1ccc(S(=O)(=O)N(C)CCO)cc1-c1nc2c(C(C)(C)C)nn(C)c2c(=O)[nH]1,·,14.2,·,-7.1,1.8,-5.7,4.7,-4.2,
CCOC(=O)CC(NS(=O)(=O)c1ccc2[nH]c(=O)sc2c1)c1ccc(C)cc1 (stereo not given),16.7,-8.1,i,41.2,-10.8,3.6,0.1,2.8,
CC1(C)NC(=O)N(CCCCOc2ccc3ccccc3c2Cl)C1=O,-25.1,-21.3,i,5.1,28.5,5.2,3.0,-0.7,
O=C1[C@@H]2CSCN2C(=O)CN1Cc1c(F)cccc1Cl,-18.2,·,i,2.8,-11.8,-10.8,-0.7,2.0,
CCOC(=O)CSc1nc2ccccc2c(=O)n1C1CCCC1,-82.3,7.5,i,5.5,17.4,0.3,5.3,7.5,
Cc1cccc(NC(=O)c2ccc(S(=O)(=O)C(F)F)cc2)c1C,10.6,·,i,9.2,-9.0,-15.2,-1.0,5.9,
COC(=O)CSC1=C(C#N)C(c2ccc(F)cc2)CC(=O)N1 (stereo not given),14.2,0.3,i,-0.3,2.0,0.6,2.9,-0.8,
Cc1nnc(N2C(=O)C(O)=C(C(=O)c3ccco3)C2c2cccc3ccccc23)s1 (stereo not given),-22.2,-6.5,i,28.0,24.9,28.0,-12.4,4.9,
O=C(COC(=O)c1cc(=O)[nH]c2ccccc12)NCc1ccccc1Cl,13.5,-18.0,·,·,10.0,·,-0.5,-0.9,
COc1ccc2[nH]cc(CCNS(=O)(=O)c3ccc(C)cc3)c2c1,3.8,·,i,7.7,-3.2,1.0,1.0,-1.4,
CC(=O)Nc1ccc(C(O)(C(F)(F)F)C(F)(F)F)cc1,-4.0,-0.7,i,5.3,-7.8,-2.6,1.3,5.6,
CN(NS(=O)(=O)c1ccc(F)cc1)c1ncc(C(F)(F)F)cc1Cl,-2.3,·,i,-12.7,-4.5,3.2,4.3,3.3,
CC(=O)ON1C(C)(C)CC(OC(=O)c2ccccc2)CC1(C)C,25.9,7.4,i,5.8,13.8,-5.8,-3.1,-1.2,
O=C(N/N=C(\c1ccccc1)c1cccnc1)C(O)(c1ccccc1)c1ccccc1,·,-0.8,i,1.6,-8.9,-5.9,0.9,-3.0,
Cc1cc(C)c(OCCN(C)Cc2ccccc2)c(Br)c1,-8.9,·,i,-3.1,·,9.6,-5.0,-1.9,
COc1ccc(O)c(/C=N/NS(=O)(=O)c2ccc(C)cc2)c1,-18.1,-6.1,i,-2.9,-10.7,-5.0,5.2,2.2,
COc1ccc(S(=O)(=O)c2nnn(-c3ccccc3Cl)c2N)cc1,19.6,·,i,1.6,-11.4,7.2,1.9,4.6,
O=C(Nc1ccccc1)NC1CCCCCCC1,-23.2,-4.2,i,·,2.2,·,-4.1,-4.3,
CN(CC(=O)Nc1ccc(S(N)(=O)=O)cc1)Cc1ccccc1F,-3.0,·,i,-31.3,-0.5,-4.8,0.0,-6.1,
O=c1[nH][nH]c(C(F)(F)F)c1C=Nc1cccc(Cl)c1,6.4,-4.5,i,-2.7,2.2,-2.5,-4.0,-0.3,
CN(C)c1ccc(/C=N/NC(=O)c2sccc2-n2cccc2)cc1,-22.6,-1.3,i,5.4,1.6,-3.8,-6.1,-7.3,
CCCCOC(=O)C(C#N)c1nc2ccccc2nc1N1CCOCC1 (stereo not given),·,-8.6,i,1.7,12.9,2.3,-5.0,-4.9,
O=C(Cn1nc(-c2ccc(Cl)cc2)ccc1=O)NCC1COCCO1 (stereo not given),-15.5,0.7,i,4.9,·,-0.8,-1.1,0.1,
CC(=O)c1ccc(OC(=O)COc2ccccc2)cc1,-14.0,-6.3,i,7.5,-12.7,-1.7,2.2,2.7,
CCCN(CC(=O)Nc1ccc(Cl)cc1Cl)C(=O)/C=C/c1cc(OC)ccc1OC,17.5,2.0,i,88.0,3.9,-5.9,0.0,-3.4,eIF4H inh retest=3.1;PABP polyA inh retest=3.6
O=c1c2c(nc3c(-c4ccccc4)c[nH]n13)CCC2,12.7,-18.1,i,4.7,4.4,-6.9,1.9,-3.3,
COc1ccc(C(NC(=O)CC(C)C)NC(=O)CC(C)C)cc1OC,·,11.6,i,-5.0,-2.0,-6.0,17.3,5.4,
CC(=O)Oc1cccc(/C=C2\Sc3ccccc3C2=O)c1,6.3,·,i,1.1,13.8,20.2,-7.7,-6.9,
O=C(Nc1ccc(SC(F)F)cc1)c1ccc(F)cc1,-58.7,·,i,-4.0,12.2,-8.8,2.8,-8.2,
CC(C)N1C(=O)C(O)(C2COC(C)(C)CC2=O)c2ccccc21 (stereo not given),13.5,·,i,2.5,-4.0,4.0,-2.4,0.3,
CCOC(=O)N1CCN(C(=O)CSc2nc(CC)nc3c2c(=O)n(C)c(=O)n3C)CC1,1.1,-7.3,i,3.1,-10.1,-5.7,2.0,3.0,
CNc1ncc(C(=O)c2ccc(F)cc2)s1,-15.3,·,i,-8.2,13.5,-2.7,3.3,3.7,
COc1ccc(CCNC(=O)CSc2ncc(C(=O)Nc3ccccc3)c(=O)n2C)cc1,-2.3,·,i,·,2.3,·,-0.9,-3.1,
CCc1ccc(N(CC(=O)N2CCCCCC2)S(C)(=O)=O)cc1,-7.7,-36.6,i,5.2,-6.9,-8.9,-5.4,2.9,
Cc1ncc(CO)c(/C=N/NC(=O)c2ccoc2C)c1O,-2.2,-13.0,·,·,·,·,1.7,5.5,
Cc1ccc(N(CC(=O)Nc2ccc(F)c(Cl)c2)S(=O)(=O)c2c(C)noc2C)cc1,-10.6,-13.7,i,-0.5,-8.6,-9.9,-0.2,-0.8,
CCOC(=O)c1cn(CC)c2ccc(S(=O)(=O)N3CC(C)CC(C)C3)cc2c1=O (stereo not given),18.1,-11.8,·,-10.7,6.1,10.9,1.0,-1.7,
CC(Oc1ccc2c3c(c(=O)oc2c1)CCCC3)C(=O)NCCN1CCOCC1 (stereo not given),0.2,-10.9,i,-11.5,-0.5,-6.0,0.7,2.5,
CCOc1ccc(/C=N/OCC(=O)Nc2ccc(OCc3ccccc3)cc2)cc1OC,3.0,·,i,31.9,16.1,-7.2,·,·,
Cc1ccc(NC(=O)c2cccc(OC(F)F)c2)c(OC(F)F)c1,-5.3,8.4,i,-8.5,6.0,-1.4,-0.7,-2.4,
CC(NC(=O)OCc1ccccc1)C(=O)NCC(=O)NC(Cc1ccc(OC(C)(C)C)cc1)C(=O)OC(C)(C)C (stereo not given),-7.8,25.6,i,-1.1,-12.2,-12.3,-2.5,-5.1,
COc1ccc(OC)c(-n2c(SC)nnc2-c2c[nH]c3ccccc23)c1,-24.0,-6.2,i,-3.7,-6.3,8.2,-1.0,-5.2,
O=C(CCN1CCCCC1)NCC1OCCc2ccccc21 (stereo not given),-2.6,-17.8,i,-2.2,-12.8,-3.9,-0.1,-4.7,
COc1ccc(/C=N/NC(=O)c2cc3cc(OC)c(OC)cc3[nH]2)cc1,-7.2,25.9,i,0.1,11.5,5.4,5.9,-2.8,
COc1ccc(CCn2nnnc2C(C(C)C)N2CCN(c3ncccn3)CC2)cc1OC (stereo not given),15.6,-0.2,i,-2.5,-8.3,2.8,0.5,-1.4,
Cc1cnc(NC(=O)Cc2ccc(S(=O)(=O)N3CCOCC3)s2)s1,25.3,·,·,·,3.8,·,-32.1,6.4,
CCOC(=O)c1cn2nc(Oc3cccc(C(F)(F)F)c3)ccc2n1,11.1,·,i,1.5,-6.1,5.1,-2.5,-1.8,
Cc1ccc(C(=O)OCc2ccc3c(c2)OCO3)cc1S(=O)(=O)N1CCCCC1,55.1*,-9.5,i,4.0,3.0,3.4,-7.7,-10.1,
Cc1cc(C)cc(NC(=O)CSc2nc3nc(C)cc(C)c3c(=O)[nH]2)c1,14.5,-11.9,·,·,·,·,1.3,2.1,
COc1ccc(N2CCN(C(=O)NC(=O)c3ccccc3)CC2)cc1,-5.6,8.9,i,2.3,0.4,13.5,-1.1,-2.4,
CN1C(C(=O)Nc2ccc(OC(F)(F)F)cc2)=CC(c2ccco2)=NS1(=O)=O,19.3,-10.3,i,·,3.3,·,-5.7,-4.0,
O=C(CN(C(=O)c1csnn1)c1ccccc1Cl)NC1CCCC1,-4.5,-3.2,i,4.3,-14.6,-6.1,2.1,2.8,
Cc1ccnc(NS(=O)(=O)c2ccc(NC(=O)C34CC5CC(C)(CC(C)(C5)C3)C4)cc2)n1,-17.3,-8.2,i,-8.8,17.6,-6.5,0.6,0.7,
O=C(O)Cc1c(-c2ccccc2)c2cc(Br)ccc2[nH]c1=O,-28.9,·,i,7.7,-3.7,2.7,2.8,1.1,
CN=c1scc(-c2ccccc2F)n1/N=C/c1ccc(O)c(O)c1O,-252.5,-91.7,i,13.4,·,79.3,-14.3,-9.1,eIF4H inh retest=-1.3;PABP polyA inh retest=6.1
CCc1ccc(Nc2nnc(SCC(=O)N(C)CC(=O)Nc3ccccc3CC)s2)cc1,·,·,i,6.8,7.2,-0.7,-0.7,-6.2,
CCOC(=O)N1CCC(N(CCCOC)C(=O)Nc2cccc(OC)c2)CC1,-19.3,-0.8,i,0.3,1.9,-2.9,7.4,2.4,
CCOC(=O)N1CCN(C(=O)C2CCN(Cc3nc(-c4ccccc4C)oc3C)CC2)CC1,1.3,-1.4,i,7.3,-14.0,-6.1,2.3,5.5,
COc1ccc(C(F)(F)F)cc1N/C=C\c1nnnn1-c1ccccc1,-23.1,-12.2,i,-4.6,8.8,-0.1,4.4,1.9,
O=C(Nc1ccc2ccccc2c1)C(=O)C1C(=O)Nc2ccccc21 (stereo not given),-8.1,·,i,12.4,-5.7,5.0,·,·,
# (cont.)
SMILES,HIV Env fusion,UUG fidelity,Rce1 inh,PABP polyA inh,CSC inhib,eIF4H inh,MT1-MMP act inh,MT1-MMP act inh RFP,others
O=C(NCc1ccccn1)C(=O)NCC1OCCN1C(=O)c1ccc(Cl)cc1 (stereo not given),·,-24.6,i,-6.4,-6.5,8.7,-2.2,3.2,
COc1ccc(CN(C(=O)c2cc(=O)c3ccccc3o2)C2CCS(=O)(=O)C2)cc1 (stereo not given),8.5,-13.9,i,0.0,·,-4.5,-0.6,0.8,
COc1ccc(/C=N/Nc2ccccc2)cc1Cn1nc(C)c([N+](=O)[O-])c1C,·,0.4,i,-6.3,10.1,-12.3,-9.3,-8.7,
O=C(Nn1cnnc1)C1Cc2ccccc2CN1S(=O)(=O)c1ccc(F)cc1 (stereo not given),-24.3,-2.4,·,-4.4,-8.1,-5.7,1.5,4.0,
O=C(COc1ccc2c(-c3ccccc3)cc(=O)oc2c1)NC(Cc1c[nH]c2ccccc12)C(=O)O (stereo not given),-13.0,17.2,·,·,-14.8,·,-0.5,2.3,
COCCNc1nc2cc(-c3cccc(Cl)c3)sc2c(=O)n1C,18.6,-17.5,·,·,·,·,2.3,-8.5,

# Screens (PubChem BioAssay)
